# YopH PTP inh – YopH (Yersinia) phosphatase inhibition; fluorescence Ex485/Em525; inhibition, %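 (about 10 µM by stock and volumes)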; 0.16% of 140,000 active;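 active means inhibition of 50% or more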;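 further: controls were vehicle for no effect and minimum signal wells for full effect; inactives centre near -20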
# Mtb H37Rv – M. tuberculosis H37Rv growth inhibitors, H37Rv strain (AID 1626); 0.95% of 220,000 active; M. tuberculosis H37Rv growth inhibition; higher % means a stronger effect; inhibition, % at 10 µM, or IC50 in µM where a hit was titrated;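 active means confirmed in a dose series; inconclusive means inhibition above 80% but not taken into the dose series; inactive means below 80% or under 30% at every dose of the series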;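 further: bacteria incubated seven days before Alamar blue readout; 0% = bacteria only wells and 100% = bacteria with antibiotic wells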
# Mtb betalactam – beta-lactam sensitization of Mtb H37Rv; M. tuberculosis H37Rv growth with meropenem, percent inhibition; hits of this screen are not shown here; 0.27% of 330,000 active; inhibition, % at 25 µM; AID 434955;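 active means about 74% or more and at least 40 points above the plate without the antibiotic, then above 30% in a dose series; inconclusive means first-round hits that could not be retested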;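 further: growth measured after seven days incubation then overnight dye step; 0% = bacteria only wells and 100% = bacteria with antibiotic; twin plates without the antibiotic show which effects depend on it; some results filed as inactive read as strong as hits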
# RecA splice inh – inhibitors of M. tuberculosis RecA intein splicing. inhibition, %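 (about 9 µM by stock and volumes)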. cell-free RecA intein splicing, fluorescence. P9WHJ3. 0.75% of 290,000 active; in the data active means inhibition above about 30%; inconclusive means no clear call, values can overlap the other calls;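 further: 0% = vehicle wells and 100% = reference inhibitor control wells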
# Target sequence (P9WHJ3 whole entry, looked up, canonical isoform): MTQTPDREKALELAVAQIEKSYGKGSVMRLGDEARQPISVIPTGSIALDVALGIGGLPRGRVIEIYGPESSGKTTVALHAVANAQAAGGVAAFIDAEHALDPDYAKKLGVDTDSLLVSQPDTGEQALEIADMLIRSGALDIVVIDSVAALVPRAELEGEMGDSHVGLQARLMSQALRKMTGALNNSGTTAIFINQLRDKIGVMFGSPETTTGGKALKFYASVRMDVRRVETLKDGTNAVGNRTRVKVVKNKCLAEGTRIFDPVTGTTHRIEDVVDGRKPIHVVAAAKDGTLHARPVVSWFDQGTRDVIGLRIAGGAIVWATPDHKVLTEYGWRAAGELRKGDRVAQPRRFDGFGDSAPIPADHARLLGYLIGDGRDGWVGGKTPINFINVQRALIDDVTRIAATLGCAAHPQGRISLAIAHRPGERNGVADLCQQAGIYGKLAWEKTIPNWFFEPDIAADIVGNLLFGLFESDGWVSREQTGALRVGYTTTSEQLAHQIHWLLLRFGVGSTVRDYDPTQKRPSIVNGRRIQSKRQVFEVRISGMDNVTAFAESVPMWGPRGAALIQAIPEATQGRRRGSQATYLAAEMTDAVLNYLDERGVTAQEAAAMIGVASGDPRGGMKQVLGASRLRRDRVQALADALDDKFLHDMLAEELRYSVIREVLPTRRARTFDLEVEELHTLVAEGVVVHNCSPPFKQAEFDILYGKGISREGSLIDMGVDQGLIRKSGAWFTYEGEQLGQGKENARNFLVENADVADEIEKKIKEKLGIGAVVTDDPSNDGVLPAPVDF
# Arbovirus anti – antivirals against arbovirus infection. arbovirus infection cell-based antiviral screen. inhibition, % at 10 µM. 0.37% of 200,000 active;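 active means inhibition from about 30%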;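 further: bluetongue infection of BSR cells; cell survival read as ATP light after 72 h; 0% = infected wells without compound and 100% = uninfected wells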
# Arbovirus anti repeat – recorded beside Arbovirus anti, whose call it bears; inhibition, %; measured here: 10K subset replicate screen; many hits read low in the repeat;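 first of two repeat runs on a subset; 0% = infected and 100% = uninfected wells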
# The depositor's hits bear a star; ? = inconclusive; . = not tested or not shown. A portion of the library. The share of hits here may be higher or lower than overall.
# Preview:
SMILES,YopH PTP inh,Mtb H37Rv,Mtb betalactam,RecA splice inh,Arbovirus anti,others
CCc1c(C)sc(NC(=O)CCc2ccc(OC)cc2)c1C(N)=O,-31,-5%,-2,-0.2,-7,
CCN(Cc1ccccc1)S(=O)(=O)c1c(C)n(C)c(=O)n(C)c1=O,.,.,-10,-1.7,.,
O=C(/C=C/c1cccc(Br)c1)c1ccc2c(c1)OCO2,.,.,86,8.8,.,
O=C(COC(=O)c1cc([N+](=O)[O-])ccc1N1CCOCC1)c1ccccc1,.,.,-13,-0.4,.,
O=S(=O)(Cc1nc2ccccc2s1)c1ccccc1,-4,10%,23,0.8,1,

# Main list, previewed entries included:
SMILES,YopH PTP inh,Mtb H37Rv,Mtb betalactam,RecA splice inh,Arbovirus anti,others
CCc1c(C)sc(NC(=O)CCc2ccc(OC)cc2)c1C(N)=O,-31,-5%,-2,-0.2,-7,
CCN(Cc1ccccc1)S(=O)(=O)c1c(C)n(C)c(=O)n(C)c1=O,.,.,-10,-1.7,.,
O=C(/C=C/c1cccc(Br)c1)c1ccc2c(c1)OCO2,.,.,86,8.8,.,
O=C(COC(=O)c1cc([N+](=O)[O-])ccc1N1CCOCC1)c1ccccc1,.,.,-13,-0.4,.,
O=S(=O)(Cc1nc2ccccc2s1)c1ccccc1,-4,10%,23,0.8,1,
CC(C)(C)OC(=O)NCc1ccc(CNC(=O)c2[nH]cnc2C(=O)N[C@@H](Cc2ccccc2)C(=O)OCc2ccccc2)cc1,.,.,-6,2.6,.,
CC(C)c1ccc2oc(=O)cc(CN3CCOCC3)c2c1,.,.,-5,-2.7,.,
Cc1cc(C(=O)CN2C(=O)NC3(CCCc4ccccc43)C2=O)c(C)n1Cc1cccs1 (stereo not drawn),-34,8%,-5,0.1,-12,
Cc1ccc(C2=NS(=O)(=O)N(C)C(C(=O)NCc3ccco3)=C2)cc1,.,.,-1,0.7,.,
COc1ccc(CN2CCCC(CNC(=O)c3ccc(F)cc3)C2)cc1OC (stereo not drawn),.,7%,-3,-0.7,-4,
C/C(=C/C=C/[C@@H](C)C(=O)O)[C@H]1CN[C@H](C(=O)O)[C@H]1CC(=O)O,-13,-4%,-6,.,2,
COc1ccc(CC(=O)NCCc2ccc(Cl)cc2Cl)cc1,.,-1%,-7,-4.1,-1,
Cc1cccc(-n2c(SCC(=O)Nc3cccc(S(=O)(=O)NC4=NCCCCC4)c3)nc3ccccc3c2=O)c1C,8,8%,4,8.7,-11,
CNP1(NC)=NC(C(F)(F)F)=NC(C(F)(F)F)=N1,-19,-11%,2,-0.7,1,
CN(C)c1ccc(C(=O)N2CCNC(=O)C2CC(=O)Nc2ccc(F)cc2)cc1 (stereo not drawn),.,.,-16,-1.3,.,
CC(CCc1ccccc1)NC(=O)COC(=O)c1ccccc1O (stereo not drawn),.,-5%,-5,0.7,5,
O=C(N[C@@H](Cc1ccc(O)cc1)C(=O)O)C(c1ccccc1)c1ccccc1,.,-11%,-6,3.0,3,
CCN(CC)S(=O)(=O)c1cccc2c(N(C)C)cccc12,-24,-5%,6,1.1,0,
CCCc1ccc2oc(C(=O)N(Cc3nccn3C)C(C)C)c(C)c2c1,.,.,9,6.5,.,
O=c1cc(-c2ccccc2F)nc(-c2ccccc2F)o1,-13,-1%,82,-0.6,-9,
COc1ccc(CCN(C)C(=O)CSc2ncnc3sccc23)cc1OC,.,-5%,-8,-0.8,6,
COc1cccc(/C=N/NC(=O)c2c(-c3ccccc3)noc2C)c1,-42,4%,?,0.8,-1,
O=C(NCc1ccc2c(c1)OCO2)C(=O)NCC1CCCO1 (stereo not drawn),.,6%,-8,-0.1,4,
O=C(Nc1nccs1)c1csc2c1CCCC2,-11,70%,96,6.7,12,
O=C(NCc1ccccc1)C(c1ccco1)N(C(=O)c1csnn1)c1ccccc1 (stereo not drawn),.,.,3,-0.3,.,
Cc1cc(=S)cc(C)n1CCCO,-28,-1%,-9,-2.2,-1,
COc1ccc(-c2noc(CCCC(=O)NC3CCCC3)n2)cc1OC,.,.,3,-0.1,.,
Cc1nn(C(C)C(=O)NCc2ccccc2F)c(=O)c2nn(-c3ccccc3)c(C)c12 (stereo not drawn),.,.,3,0.9,.,
O=C(NCc1cc([N+](=O)[O-])ccc1O)c1cc(-c2ccncc2)nc2ccccc12,.,.,5,1.5,.,
COc1ccccc1NC(=O)CSc1ccc2nnc(-c3cccnc3)n2n1,-25,-2%,-1,-1.5,-1,
Cc1cc(C)n(CC(O)COc2c(C)cccc2C)n1 (stereo not drawn),.,2%,4,-1.0,-1,
O=C(O)CCn1c(SCCOc2ccccc2)nc2ccccc21,.,.,8,4.0,.,
CC1(C)Cc2ccccc2C(C(Cc2ccccc2)C(N)=O)=N1 (stereo not drawn),.,-4%,-2,1.0,-4,
CCOc1cc(C(=O)OCC(=O)c2cc(C)n(CC3CCCO3)c2C)ccc1OCC(=O)N1CCOCC1 (stereo not drawn),.,-5%,2,0.0,1,
c1csc(CNc2nc(-c3cccs3)nc3ccccc23)c1,.,9%,84,18,-17,
CCOC(=O)N1CCN(CC(O)c2c[nH]c3ccccc23)CC1 (stereo not drawn),.,.,-8,-0.2,.,
CC1(C)CC[C@]2(C(=O)O)CC[C@]3(C)C(=CC[C@@H]4[C@@]5(C)CC[C@H](O)C(C)(C)[C@@H]5CC[C@]43C)[C@@H]2C1,.,11%,-3,.,.,
O=C1NC[C@H](CC2CCCCC2)N(CC2CCCCC2)C1=O,.,.,-9,0.6,.,
CCC(CC)C(=O)Nc1ccccc1NC(C)=O,-27,-8%,3,-0.6,1,Arbovirus anti repeat=5
O=C(CN1CCOCC1)Nc1cccc([N+](=O)[O-])c1,.,.,7,-6.2,.,
S=c1[nH]nc(-c2cc(-c3ccco3)[nH]n2)n1-c1ccccc1Cl,2,-14%,-6,5.5,0,
CC(OC(=O)CN(C)S(=O)(=O)c1ccc(Cl)cc1)C(=O)Nc1ccc(N2CCOCC2)cc1 (stereo not drawn),-31,-3%,.,-1.6,7,
CCOC(=O)Cn1c(=O)n(CC(=O)OCC)c2ccccc21,-55,-4%,5,-0.6,-1,
c1ccc2c(c1)OCCc1c-2[nH]c2ccccc12,.,.,6,6.3,.,
O=c1c2ccccc2nc2n1C(CSCc1ccc(Cl)cc1)CS2 (stereo not drawn),-29,8%,4,6.9,-2,

# A section of the results above, for reference:
SMILES,YopH PTP inh,Mtb H37Rv,Mtb betalactam,RecA splice inh,Arbovirus anti,others
c1ccc2c(c1)OCCc1c-2[nH]c2ccccc12,.,.,6,6.3,.,
O=c1c2ccccc2nc2n1C(CSCc1ccc(Cl)cc1)CS2 (stereo not drawn),-29,8%,4,6.9,-2,

# The list continues.
SMILES,YopH PTP inh,Mtb H37Rv,Mtb betalactam,RecA splice inh,Arbovirus anti,others
CCC(C)NC(=O)C1CCC(CNS(=O)(=O)c2ccc3c(c2)CC(C)N3C(=O)C2CC2)CC1 (stereo not drawn),.,.,6,-4.2,.,
O=C(N/N=C/c1cccc(O)c1)c1cc(C2CC2)nc2ccccc12,.,.,-5,1.8,.,
Cc1ccc(S(=O)(=O)N2CCC(=O)N(CCOC(=O)Nc3ccccc3C)CC2)cc1,-35,-19%,-9,-4.8,2,
C=CCn1c2ccccc2c2nn(C)c(=S)nc21,.,.,7,4.6,.,
CC(C)(C)c1ccc(C(=O)CSc2n[nH]c(=O)[nH]c2=O)cc1,-8,73%,98,0.6,16,
O=C(Nc1cccc(Br)c1)c1ccccc1-c1ccccc1,-16,9%,1,11,24,
O=C(NC1CCCCC1)N1CCCCCCC1,1,2%,-7,-2.0,0,
Cc1ccc(N(CC(=O)N2CCOCC2)S(C)(=O)=O)cc1Cl,.,.,-3,-1.4,.,
O=C(c1ccco1)N1CCN(Cc2nc(-c3cccs3)no2)CC1,.,-4%,-6,1.3,3,
CCCC(=O)NC(Nc1ccc(S(=O)(=O)Nc2cc(C)on2)cc1)(C(=O)OCC)C(F)(F)F (stereo not drawn),-15,4%,-7,-0.6,2,
Cc1cc(NC(=O)CN2CCOCC2)n(-c2ccccc2)n1,.,-7%,-3,-1.3,.,
O=C(NCc1cn(-c2ccccc2)nc1-c1ccccc1)c1ccc([N+](=O)[O-])cc1,-21,-4%,-3,.,-4,
CCN1C[C@@]2(COC)C3[C@@H](OC)[C@H]4[C@@H]1[C@@]3(C1C[C@H]3[C@H](O)C1[C@]4(O)C[C@H]3OC)[C@@H](OC)C[C@H]2O (stereo partly drawn),.,5%,-4,-3.3,.,
Cc1ccc(N2C(=O)Nc3cc(Cl)c(Cl)cc3N2O)cc1Cl,.,37%,5,-0.7,9,
Cc1nc2sc(C(c3ccc(Cl)cc3)N3CCN(CCO)CC3)c(O)n2n1 (stereo not drawn),.,9%,-4,0.3,3,Arbovirus anti repeat=6
Cc1cc(C(=O)NCC2CCCO2)n(-c2ccccc2)n1 (stereo not drawn),-45,-3%,?,0.6,7,Arbovirus anti repeat=0
COc1cc(C=O)ccc1OCCOc1ccccc1[N+](=O)[O-],-24,3%,23,0.2,-5,
Cc1ccc(N2CCN(C(=O)N3CCOCC3)CC2)cc1C,.,6%,1,-3.9,-2,
CCOc1ccc2nc(SCC(=O)NCc3ccccc3OC)[nH]c2c1,.,.,-3,-0.6,.,
CC1CCc2c(C(=O)N3CCN(S(=O)(=O)c4cccs4)CC3)csc2C1 (stereo not drawn),-2,2%,-8,0.1,-1,
Cc1ccc(Nc2ccc(NCc3ccccc3)nn2)cc1C,-13,22%,64,4.3,2,
C=CCn1c(SCC(=O)NCCc2ccccc2)nc2c([nH]c3ccccc32)c1=O,.,.,0,0.3,.,
CCOc1ccc(NC(=S)NC(=O)/C=C/c2ccc(C)cc2)c([N+](=O)[O-])c1,-44,.,8,-1.0,-5,
O=C(NCc1ccccc1)C1=C[C@@H](c2ccc(Br)cc2)C[C@@H](OCc2ccc(CO)cc2)O1,.,12%,50,12,-10,
COc1ccc(C(=O)Nc2nnc(Cc3cccs3)s2)cc1OC,6,-10%,4,0.1,-17,
O=C(CCS(=O)(=O)c1ccccc1)Nc1nc2c(s1)COc1ccccc1-2,-53,9%,87,5.7,-6,Arbovirus anti repeat=-45
CCOc1cccc(=O)c2c(C)n(-c3ccc(C(=O)O)cc3)c(C)c12,.,2%,-8,-1.8,-2,
Cc1cc(S(=O)(=O)N2CCN(c3ccccn3)CC2)ccc1F,.,.,-4,-0.4,.,
S=c1nc[nH]c2c1cnn2Cc1ccccc1,.,.,-1,-1.5,.,
CCO[C@H]1OC(C(=O)NCc2nc3ccccc3[nH]2)=C[C@@H](C2CCCCC2)[C@@H]1CCCO,.,-2%,20,3.1,-13,
Cc1c(NC(=S)NC(=O)C(C)(C)C)cccc1[N+](=O)[O-],-12,19%,-1,3.2,-6,
CC(=O)Nc1cccc(OCCCNS(=O)(=O)c2ccc(F)cc2)c1,.,-6%,2,-1.0,.,
CC(Cc1c[nH]c2ccccc12)C(=O)NCc1ccco1 (stereo not drawn),.,.,1,-1.2,.,
CCOC(=O)Nc1cc(NC(=O)OCC)c(C)nc1C,.,-12%,-5,-0.2,.,
Cc1ccc(F)c(NC(=O)C2CCCCC2C(=O)O)c1 (stereo not drawn),-53,2%,-5,-1.0,5,Arbovirus anti repeat=5
Cc1cccc(C(=O)Oc2c(Br)cc(Br)cc2/C=N/NC(=O)c2ccncc2)c1,.,.,-5,-6.6,.,
C/C(=N\N(C)C)C1=C(O)c2ccccc2C1=O,-21,6%,2,-1.6,3,
COc1ccc(C2C3=C(CC(C)(C)CC3=O)Oc3ncn(Cc4ccccc4)c(=N)c32)cc1 (stereo not drawn),-2,-2%,12,-0.5,-30,
CCn1nc(C)c(CN2CCC(Oc3ccc(C(=O)N4CCCC4)cc3)CC2)c1C,.,.,3,1.9,.,
CC(C)(C)OC(=O)N1CCC(c2c(C(=O)NCC3CCN(C4CCCC4)C3)cnn2-c2ccccc2)CC1 (stereo not drawn),.,.,-1,-1.1,.,
O=C(O)c1cc2c(cc1NC(=O)c1ccccc1OC(F)F)OCCCO2,.,.,2,9.2,.,
C=CCNC(=O)/C(=C\c1ccc(Br)cc1)NC(=O)c1ccccc1OC,.,4%,1,0.9,1,
COc1ccc(NC(=O)c2cccnc2NCCc2ccccc2)cc1,-27,9%,15,0.0,1,
O=C(Cn1nc(-c2ccc(Cl)cc2)c2ccccc2c1=O)Nc1cccnc1,-3,23%,68,2.0,2,
COc1ccc(-c2cc3nc(CCl)[nH]c(=O)c3s2)cc1,.,.,99,9.7,.,
CCNC(=S)NNC(=O)c1ccccc1Cl,-15,4%,-4,-8.9,2,
CC(C(=O)c1ccc(Cl)cc1Cl)n1cncn1 (stereo not drawn),.,.,8,-0.1,.,
COc1ccccc1CCC(=O)OCC(=O)Nc1ccc(C)c(S(=O)(=O)N2CCCCC2)c1,.,.,0,10,.,

# Screening results from PubChem BioAssay.
